HSV replic up: HSV replication enhancement. actives 0.005% (n = 220,000). HSV replication augmentation in cells, fold increase. maximum fold increase;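 active = peak rise of 1.5-fold or more in the series; inconclusive = self-fluorescent or not available for retest; tested in PC3 cells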;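 note: first round at 10 µM; read as green reporter fluorescence; hits show the peak of a series up to 25 µM; 1 = signal of infected wells without compound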
INS promoter inh: TRM-6 insulin promoter activity inhibition | TRM-6 cells (human fetal islet line), insulin promoter-eGFP reporter, imaging; reporter expression induced with tamoxifen | inhibition, % at 2 µM | actives 0.9% (n = 130,000) | AID 1273;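 active = inhibition above the mean plus 3 SD, with well images judged a real hit on visual review, cut at about 60% in these data, passing the limit was not always enough; inconclusive = inhibition over the cutoff but images rejected on review; inactive = inhibition not above the cutoff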
GALR2 ag: GALR2 (human) receptor agonism | actives 0.48% (n = 140,000) | AID 803 | activation, %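 (tested at 5 µM)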 | GALR2-expressing cells, agonist activation read-out;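 active = above mean plus 3 SD of all compounds, about 5% in these data, not always enough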;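 note: 0% = vehicle buffer wells and 100% = reference agonist at full effect; tested in CHO reporter cells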
PKD1 inh: PKD1 (human) kinase inhibition | Q15139 | PKD1 kinase fluorescence polarization assay | inhibition, %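 (about 10 µM by stock and volumes)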 | actives 0.056% (n = 200,000) | AID 797;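 active = inhibition of 50% or more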;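 note: controls were vehicle for no effect and a reference inhibitor for full effect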
Target sequence (Q15139 whole entry, looked up): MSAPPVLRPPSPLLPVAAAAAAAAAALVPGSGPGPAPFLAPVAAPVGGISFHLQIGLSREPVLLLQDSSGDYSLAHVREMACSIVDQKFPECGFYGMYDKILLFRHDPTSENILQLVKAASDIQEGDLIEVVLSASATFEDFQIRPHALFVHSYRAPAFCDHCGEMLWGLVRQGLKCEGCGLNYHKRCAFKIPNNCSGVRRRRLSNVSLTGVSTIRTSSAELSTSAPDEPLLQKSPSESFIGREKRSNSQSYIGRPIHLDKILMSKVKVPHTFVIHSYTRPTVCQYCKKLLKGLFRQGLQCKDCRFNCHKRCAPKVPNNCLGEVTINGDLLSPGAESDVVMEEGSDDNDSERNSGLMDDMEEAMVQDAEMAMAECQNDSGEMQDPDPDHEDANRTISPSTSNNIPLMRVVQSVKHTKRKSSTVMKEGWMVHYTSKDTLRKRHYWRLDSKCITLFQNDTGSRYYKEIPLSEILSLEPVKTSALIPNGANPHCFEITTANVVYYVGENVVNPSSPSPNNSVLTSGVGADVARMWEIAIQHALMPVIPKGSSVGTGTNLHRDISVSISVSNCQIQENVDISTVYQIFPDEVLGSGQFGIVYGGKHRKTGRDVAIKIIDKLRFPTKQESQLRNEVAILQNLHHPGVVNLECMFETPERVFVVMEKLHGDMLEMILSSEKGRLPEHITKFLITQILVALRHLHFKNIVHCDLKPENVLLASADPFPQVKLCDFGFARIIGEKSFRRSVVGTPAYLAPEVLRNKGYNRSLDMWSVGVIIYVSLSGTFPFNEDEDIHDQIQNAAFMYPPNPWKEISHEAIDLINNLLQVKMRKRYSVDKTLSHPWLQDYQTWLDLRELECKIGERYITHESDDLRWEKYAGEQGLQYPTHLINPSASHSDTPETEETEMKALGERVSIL
RGS16-Gao HTS: RGS16-Galphao interaction regulator (human). bead-based flow cytometry RGS16-Galphao binding, fluorescence; actives lie on both sides. binding response (% of control), % at 10 µM. actives 0.38% (n = 220,000);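 active = below 25% or above 175%, edge rows of some plates excepted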;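 note: Galphao activated by GDP with aluminum fluoride before binding; 100% = wells without compound and 0% = beads without RGS; some results beyond the cut were filed as inactive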
INS promoter inh cell count: second read-out of INS promoter inh, no call of its own (marks repeat the call); normalized cell count, %; measured here: cell count, toxicity; reference of the scale not given here;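 cells exposed to compound for 48 h; stained nuclei by imaging scaled within each plate; lower means fewer cells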
HSV replic up primary fold: second read-out of HSV replic up, no call of its own (marks repeat the call); fold increase; compound at 10 µM; measured here: primary screen fold increase 10 uM; tested in PC3 cells;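 GFP signal in the first replicate; 1 = infected wells without compound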
* hit, by the source's call; i = inactive; ? = inconclusive; · = not tested or not shown.

smiles	INS promoter inh	HSV replic up	PKD1 inh	GALR2 ag	INS promoter inh cell count	RGS16-Gao HTS	HSV replic up primary fold
Cc1ccc(OCCCC(=O)NCc2ccco2)cc1	-52	i	-10	-3.0	83	100	0.99
COc1cccc(NC(=S)/C(=C(\[O-])c2ccc(OC(F)F)cc2)[n+]2ccccc2)c1	·	i	-6	·	·	95	1.1
O=C(Nc1cccc(Cl)c1N1CCOCC1)c1ccc2c(c1)OCCO2	50	i	0	·	111	102	1.2
CC(C)(C)CN1C(N)=NC[C@H]1Cc1ccc(O)cc1	·	i	·	·	·	99	0.8
COC(=O)N1CCN(c2ccc(C(C)=O)cc2)CC1	52	i	-3	-2.9	76	106	0.96
O=C(CCn1c(=S)oc2ccccc21)N1CCCCC1	·	i	0	·	·	107	0.92
CNC(=O)c1[nH]cnc1C(=O)N[C@@H](CC(C)C)C(=O)OCc1ccccc1	·	i	-3	·	·	93	0.81
O=C(Nc1cccc2c1CCCC2)C1CCCN(S(=O)(=O)c2cccc3nonc23)C1 (stereo not drawn)	46	i	-5	-1.7	145	101	0.95
COc1ccc(N2CCN(C(=O)C3CCN(S(=O)(=O)c4cccs4)CC3)CC2)cc1	-75	i	-4	·	58	96	0.97
COc1cc2c(cc1OC)CN(C(=O)CC1CC3CCC1C3)CC2 (stereo not drawn)	-41	i	-15	0.2	76	112	0.77
Cc1ccc(N2CCN(C(=O)CN3C(=O)c4ccccc4C3=O)CC2)cc1	20	i	1	-0.1	96	-24	0.9
Cc1cc(C)cc(N(C(=O)CNC(=O)c2ccco2)C(C(=O)NC2CCCC2)c2cccnc2)c1 (stereo not drawn)	·	i	-6	-0.8	·	104	0.96
CC[n+]1c(C)sc2cc(C)ccc21	-10	i	-5	·	97	102	0.87
CCN(c1ccc(F)cc1)S(=O)(=O)c1ccc2[nH]cc(C(=O)NCCCN3CCOCC3)c(=O)c2c1	·	i	0	·	·	102	1
O=C1Nc2c(c(=O)[nH]c(=O)n2-c2ccccc2F)C(C(F)(F)F)(C(F)(F)F)N1	35	i	-7	-1.4	118	95	0.85
COc1ccc(N2C(=O)CC(NNC(=O)c3ccc(Br)s3)C2=O)cc1 (stereo not drawn)	·	i	4	·	·	101	0.99
CCOC(=O)/C(C(N)=NC(C)C)=C(\O)c1ccccc1	-45	i	-8	-0.4	142	92	0.81
Cc1ccc(-c2ccc([C@H]3[C@H]4C=CC[C@@H](C)[C@@H]4C(=O)N3Cc3ccccc3)c(F)c2)cc1	·	i	·	·	·	109	0.92
Cc1ccc(C(=O)NCC(=O)OC(C)C(=O)Nc2ccc(N(C)C)cc2)cc1C (stereo not drawn)	·	i	-7	·	·	92	1
CCOC(=O)C1(Cc2ccc(OC)cc2)CCN(C(=O)Cn2cnnn2)CC1	·	i	-4	·	·	93	1.2
COCC(C)n1c(SCc2ccc(C(=O)OC)o2)nc2ccccc2c1=O (stereo not drawn)	·	i	5	-1.0	·	165	0.7
Nc1nc(Cl)cc(N2CCOCC2)n1	21	i	4	-1.0	130	106	0.75
COc1ccc([N+](=O)[O-])cc1NC(=O)Cc1ccc(C)cc1	-16	i	-5	-0.3	104	-0.2*	0.87
C/C(=N\NC(=S)NCc1ccccc1)c1ccc(C#N)cc1	·	i	2	·	·	100	0.97
CCOc1ccc(CC(=O)NNC(=O)NC2CCCCC2)cc1	·	i	1	·	·	99	1
CCCN(CCC)C1=CC(=[N+]2CCCC2)CC(C)(C)C1	-40	i	-9	-0.6	98	107	0.91
CCC(=O)c1cc(F)c(N2CCN(S(=O)(=O)c3ccccc3)CC2)cc1C	-7	i	-6	0.5	92	102	0.84
NC(=S)Nc1ncc(C(F)(F)F)cc1Cl	·	i	2	·	·	97	0.97
CSCCC(NC(N)=O)C(=O)NCC1CCCCC1 (stereo not drawn)	·	i	-7	-0.3	·	104	0.97
CCOC(=O)C1CCCN(C(=O)CSc2ccc(NC(C)=O)cc2)C1 (stereo not drawn)	64	i	-3	·	98	104	0.99
C#CC(CO)N(CCN(Cc1ccccc1)C(C#C)CO)Cc1ccccc1 (stereo not drawn)	-64	i	-6	0.1	96	101	0.91
N#Cc1ccc(OCc2noc(-c3ccsc3)n2)cc1	·	i	·	·	·	98	0.94
O=C(NNC1CC(=O)N(c2cccc(Cl)c2)C1=O)c1cccs1 (stereo not drawn)	14	i	2	-1.3	89	104	1
C#CC[N+](C)(C)CCCCCCCCC	-22	i	-6	-1.0	73	98	0.9
N#CCCS(=O)(=O)c1nnnn1-c1ccccc1	29	i	3	-4.7	62	·	0.88
CCOC(=O)c1ccccc1NC(=O)COC	-220	i	8	-2.6	94	101	1.1
CCOc1ccc(NC(=O)C2CC(=O)N(CC)C(=Nc3ccc4c(c3)OCO4)S2)cc1 (stereo not drawn)	-19	i	0	-2.3	57	99	0.88
Cc1ccc(Nc2nc(N)nc(CSc3nccn3C)n2)c(C)c1	-190	i	-9	-1.9	71	97	0.97
O=C1/C(=C/c2cccs2)COc2ccccc21	·	i	3	-1.5	·	102	0.85
COc1ccc(O)c(C(=O)c2cnc3c(c2)CN(C)C(=O)N3)c1	·	i	-3	·	·	97	0.79
O=C(CS(=O)(=O)c1cn(Cc2ccc(Cl)cc2)c2ccccc12)N1CCOCC1	·	i	-16	-2.5	·	93	0.96
COCCn1c(SCC(=O)Nc2ccccc2)nc2c1c(=O)[nH]c(=O)n2C	57	i	-4	-1.3	125	103	0.91
O=C(Nc1ccon1)c1cccc(S(=O)(=O)N2CCCC2)c1	21	i	7	-2.8	100	100	1.1
O=C1/C(=C/c2cccs2)SC(=S)N1NS(=O)(=O)c1ccccc1	·	i	·	·	·	103	1.1
O=C(c1cccs1)N1CCCC(c2ccccc2)C1 (stereo not drawn)	17	i	3	-2.4	126	103	0.8
O=C(O)CC(NC(=O)c1ccccc1NC(=O)c1ccccc1)C(=O)O (stereo not drawn)	11	i	8	-0.8	207	103	0.93
CC(=O)Nc1ccc(C(=O)Cn2c3[n+](c4c(F)c(F)ccc42)CCCCC3)cc1	·	i	6	·	·	101	0.9
C=CCSc1nnc(-c2cc3c(C(F)(F)F)nn(C)c3s2)n1C	-30	i	12	-3.9	95	100	0.98
CC(=O)Nc1cc(C(=O)N(C)Cc2ccco2)ccc1Sc1ccc(C)cc1	-30	i	0	-0.9	124	103	0.83
Cc1ccc(P(=O)(CO)c2ccc(C)cc2)cc1	0	i	7	-1.9	126	65	0.84
O=C(COc1ncnc2ccccc12)NCC1CCCO1 (stereo not drawn)	·	i	1	·	·	100	0.99
O=C1CSC(=S)N1N1C(=O)c2cccc([N+](=O)[O-])c2C1=O	·	i	6	·	·	105	1
CCC(C(=O)Nc1nccs1)(C(F)(F)F)C(F)(F)F	·	i	1	-2.8	·	104	0.92
COC(=O)c1cc(OC)nc2c1c(=O)n(C)c(=O)n2C	9	i	-7	-1.1	118	107	1.4
Cc1nc(C)n(CC(O)COc2ccc3cc(Br)ccc3c2)n1 (stereo not drawn)	-42	i	-13	-0.5	91	107	0.85
COc1ccc(C(=O)OCC(=O)Nc2cc(C)on2)cc1S(=O)(=O)N1CCOCC1	-32	i	-8	-0.6	83	100	1.1

Following part:
smiles	INS promoter inh	HSV replic up	PKD1 inh	GALR2 ag	INS promoter inh cell count	RGS16-Gao HTS	HSV replic up primary fold
COCCCN1C(=O)C(=O)/C(=C(/O)c2ccc(OC(C)C)cc2)C1c1ccncc1 (stereo not drawn)	·	i	-2	-2.1	·	99	0.75
C=C1SC(=Nc2c(C)cccc2Cl)N(C(=O)c2sc3ccccc3c2Cl)C12CCCCC2	·	i	·	·	·	117	1
CCN1CCCC1CN(Cc1cc2ccc(C)cc2[nH]c1=O)C(=S)Nc1ccccc1OC (stereo not drawn)	0	i	-1	-1.2	71	107	1.1
CC(=O)Nc1ccc(/C=C2\Sc3ccccc3C2=O)cc1	·	i	·	·	·	103	0.99
CC1CCCCN1C(=S)NCc1ccco1 (stereo not drawn)	·	i	-1	·	·	101	0.91
CCOC(=O)c1[nH]c(C)c(C(=O)O)c1C	14	i	-4	-3.4	98	103	0.75
CCCCCCCCNC(=O)/C(C#N)=C/c1ccccc1[N+](=O)[O-]	·	i	-3	-1.4	·	100	1.8
Cc1ccc(C)c(OCC(=O)NCCNC(=O)COc2cc(C)ccc2C)c1	28	i	-4	-0.8	121	101	0.9
CC(=O)c1cccc(NC(=S)NC(=O)c2ccccc2)c1	-48	i	-8	0.8	121	95	0.89
NC(=O)CSc1oc(-c2ccc(F)cc2)nc1S(=O)(=O)c1ccccc1	·	i	5	-1.7	·	135	0.8
O=C1OCc2cccc([N+](=O)[O-])c21	7	i	1	0.2	90	106	0.97
COC(=O)c1sccc1S(=O)(=O)Nc1ccc(C)cc1	·	i	·	·	·	104	1.2
OCCOCCNc1ncnc2sc(-c3ccccc3)cc12	·	i	-4	-1.8	·	99	0.93
COc1ccc(N2C(=O)C3C(c4ccc(C(=O)O)cc4)NC(Cc4ccccc4)(C(=O)O)C3C2=O)c([N+](=O)[O-])c1 (stereo not drawn)	·	i	1	·	·	96	1.1
CSc1nsc(/C=C/Nc2cccc(Cl)c2)c1C#N	-168	i	-6	0.0	76	107	1.3
CCOC(=O)N1CCN(S(=O)(=O)c2cc(C)c(C)cc2C)CC1	29	i	-7	-0.4	86	97	0.96

One compound at a time (already shown):
CCN(c1ccc(F)cc1)S(=O)(=O)c1ccc2[nH]cc(C(=O)NCCCN3CCOCC3)c(=O)c2c1 in the list: INS promoter inh: ·; HSV replic up: i; PKD1 inh: 0; GALR2 ag: ·; INS promoter inh cell count: ·; RGS16-Gao HTS: 102; HSV replic up primary fold: 1
COc1cc2c(cc1OC)CN(C(=O)CC1CC3CCC1C3)CC2 (stereo not drawn) in the list: INS promoter inh: -41; HSV replic up: i; PKD1 inh: -15; GALR2 ag: 0.2; INS promoter inh cell count: 76; RGS16-Gao HTS: 112; HSV replic up primary fold: 0.77

New compounds follow:
smiles	INS promoter inh	HSV replic up	PKD1 inh	GALR2 ag	INS promoter inh cell count	RGS16-Gao HTS	HSV replic up primary fold
COc1ccc(/C=C2\SC(=S)N(C(C(=O)O)c3ccccc3)C2=O)c(OC)c1 (stereo not drawn)	·	i	·	·	·	101	1.1
Cc1cc(C(=O)COC(=O)Cc2n[nH]c(=O)c3ccccc23)c(C)n1-c1ccc2c(c1)OCCO2	6	i	-4	0.2	75	109	0.96
O=S(=O)(c1ccc(Oc2ccc3oc4ccccc4c3c2)nc1)N1CCCC1	·	i	-8	-1.0	·	99	0.8
Cc1ccc(NC(=O)C(C)c2ccc(-c3ccccc3)c(F)c2)cc1 (stereo not drawn)	-32	i	-9	-0.5	171	107	0.93
Cc1ccc(Nc2ccc(C(=O)N3CCCC3)cn2)c(C)c1	30	i	-11	-1.0	67	100	0.98
Cc1cc2nc(N)sc2cc1C	38	i	4	-1.5	70	105	0.83
Cc1ccccc1/C(N)=N/O	·	i	-5	-3.2	·	94	1
Cc1ccc(S(=O)(=O)N2CCN(C)CC2)c(C)c1	·	i	9	-1.3	·	102	1.1
COc1ccc(Oc2nc(C)cc(C)c2S(=O)(=O)c2ccc(C)cc2)cc1	·	·	-8	0.0	·	96	·
C(=N\NC1=Nc2cccc3cccc1c23)/c1cccnc1	-117	i	-1	·	132	100	0.96
Cc1cccc(C)c1NC(=O)N1CCC(c2nc3ccccc3o2)CC1	-11	i	-11	-1.9	72	99	1.1
CCc1ccc(OCCOCC(O)CN2CCN(Cc3ccc(Cl)cc3)CC2)cc1 (stereo not drawn)	-85	i	-1	-0.1	116	106	0.65
COc1ccc(CN(C(=O)CN2C(=O)c3ccccc3S2(=O)=O)C(C(=O)NCC2CCCO2)c2ccncc2)cc1 (stereo not drawn)	·	·	-2	-1.9	·	103	·
CCOc1ccc(C2C(C#N)=C(N)SC(N)=C2C#N)cc1OC	-32	?	-11	-0.5	112	95	·
CCCC(=O)n1nc(-c2cccnc2)nc1NCc1ccccc1	·	i	2	·	·	97	0.95
Cc1ccc(NC(=O)C[n+]2ccccc2)cc1[N+](=O)[O-]	50	i	-4	-1.4	76	97	0.71

Screening data as filed in PubChem BioAssay.
